Screening results as filed in PubChem BioAssay.
RGS16-Gao: modulators of RGS16 binding to Galphao, primary screen, biochemical, human proteins, multiplexed bead flow cytometry; Regulator of G-protein signaling 16 (Homo sapiens) + Guanine nucleotide-binding protein …; bead-based flow cytometry RGS16-Galphao binding, fluorescence; actives lie on both sides; binding response (% of control), % at 10 µM; 0.38% of 220,000 active; AID 1441, 2008;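 active = below 25% or above 175%, edge rows of some plates excepted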;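 also: Galphao activated by GDP with aluminum fluoride before binding; 100% = wells without compound and 0% = beads without RGS; some results beyond the cut were filed as inactive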
HSV replic up: enhancers of HSV replication in host cells, fold increase, host cell viability | HSV replication augmentation in cells | maximum fold increase | 0.005% of 220,000 active | AID 1956, 2009;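 active = peak rise of 1.5-fold or more in the series; tested in PC3 cells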;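 also: first round at 10 µM; read as green reporter fluorescence; hits show the peak of a series up to 25 µM; 1 = signal of infected wells without compound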
PKD1 inh: inhibitors of human PKD1 kinase, biochemical, fluorescence polarization; inhibition, %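 (about 10 µM by stock and volumes)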; PKD1 kinase fluorescence polarization assay; Serine/threonine-protein kinase D1 (Homo sapiens), Q15139; 0.056% of 200,000 active; AID 797, 2007;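 active = inhibition of 50% or more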;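 also: controls were vehicle for no effect and a reference inhibitor for full effect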
Target sequence (Q15139 whole entry, looked up): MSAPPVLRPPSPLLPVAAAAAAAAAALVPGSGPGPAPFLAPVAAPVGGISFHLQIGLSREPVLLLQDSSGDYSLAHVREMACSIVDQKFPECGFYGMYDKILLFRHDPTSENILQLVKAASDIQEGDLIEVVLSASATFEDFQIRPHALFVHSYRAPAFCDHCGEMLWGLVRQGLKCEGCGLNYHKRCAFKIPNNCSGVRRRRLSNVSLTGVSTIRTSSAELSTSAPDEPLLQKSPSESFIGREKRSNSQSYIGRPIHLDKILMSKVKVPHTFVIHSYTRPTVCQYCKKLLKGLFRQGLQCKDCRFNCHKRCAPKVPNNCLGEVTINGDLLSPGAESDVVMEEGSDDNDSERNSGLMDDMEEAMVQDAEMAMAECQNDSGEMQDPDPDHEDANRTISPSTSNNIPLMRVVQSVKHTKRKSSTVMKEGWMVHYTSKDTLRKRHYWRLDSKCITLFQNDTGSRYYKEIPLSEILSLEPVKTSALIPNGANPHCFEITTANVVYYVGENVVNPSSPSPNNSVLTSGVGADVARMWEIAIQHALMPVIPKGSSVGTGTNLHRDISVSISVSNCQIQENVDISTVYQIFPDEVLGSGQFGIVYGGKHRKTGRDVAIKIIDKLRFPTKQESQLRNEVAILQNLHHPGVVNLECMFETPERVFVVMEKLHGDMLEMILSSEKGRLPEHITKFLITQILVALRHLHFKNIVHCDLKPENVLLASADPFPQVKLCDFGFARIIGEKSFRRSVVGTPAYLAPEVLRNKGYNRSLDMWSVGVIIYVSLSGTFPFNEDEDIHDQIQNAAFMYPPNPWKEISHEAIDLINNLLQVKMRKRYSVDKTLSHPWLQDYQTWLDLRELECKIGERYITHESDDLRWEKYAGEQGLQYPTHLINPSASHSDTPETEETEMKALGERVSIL
Insulin prom inh: inhibitors of insulin promoter-driven GFP, primary screen, imaging, TRM-6 cells (human fetal islet line), eGFP reporter, cell count; 0.9% of 130,000 active; reporter expression induced with tamoxifen; inhibition, % at 2 µM;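 active = inhibition above the mean plus 3 SD, with well images judged a real hit on visual review, cut at about 60% in these data, passing the limit was not always enough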
GALR2 agonist: GALR2 receptor agonists, primary screen, cell-based; Galanin receptor type 2 (Homo sapiens), O43603; GALR2-expressing cells, agonist activation read-out; activation, %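 (tested at 5 µM)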; 0.48% of 140,000 active; AID 803, 2007;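 active = above mean plus 3 SD of all compounds, about 5% in these data, not always enough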;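 also: 0% = vehicle buffer wells and 100% = reference agonist at full effect; tested in CHO reporter cells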
Insulin prom inh cell count: recorded beside Insulin prom inh, whose call it bears; normalized cell count, %; measured here: cell count, toxicity; reference of the scale not given here;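 cells exposed to compound for 48 h; stained nuclei by imaging scaled within each plate; lower means fewer cells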
HSV replic up primary fold: further read-out of HSV replic up, marked with its call; fold increase; compound at 10 µM; measured here: primary screen fold increase 10 uM; tested in PC3 cells;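 GFP signal in the first replicate; 1 = infected wells without compound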
An asterisk follows results filed as active; i = inactive; · = no result given.

SMILES | RGS16-Gao | HSV replic up | HSV replic up primary fold | PKD1 inh | Insulin prom inh | Insulin prom inh cell count | GALR2 agonist
CCOCCCNC(=O)c1ccc(Cn2c(=S)[nH]c3c([nH]c4ccc(OC)cc43)c2=O)cc1 | 98.2 | i | 0.88 | -3.3 | 7.1 | 84.5 | ·
O=C(Nn1cnc2ccccc2c1=O)c1cccc(Cl)c1 | 97.4 | i | 0.88 | 0.9 | · | · | ·
CCNC(=O)NC(=O)CSc1nc2ccccc2n1CCOC | 99.2 | i | 0.9 | 0.0 | 50.0 | 76.6 | -2.7
CN(C)/C=C/C(=O)c1ccc(F)cc1F | 104.3 | i | 0.95 | · | · | · | ·
COc1cc(C(=O)c2nccc3cc(OC)c(OC)cc23)c([N+](=O)[O-])cc1OC | 100.5 | i | 0.9 | -1.6 | · | · | ·
Cc1c(-n2c(SCC(=O)O)nnc2-c2ccccc2Cl)c(=O)n(-c2ccccc2)n1C | 104.1 | · | · | -3.6 | · | · | -2.8
O=C(/C=C/Nc1cccc(C(F)(F)F)c1)c1ccco1 | 91.5 | i | 1.12 | 0.2 | -14.3 | 76.0 | ·
CCCn1nc(NC(=O)c2ccco2)c2cc3cc(C)ccc3nc21 | 97.5 | i | 0.9 | · | · | · | ·
CCOC(=O)C1CCN(C(=O)C2CCN(S(=O)(=O)c3cccc4cccnc34)CC2)CC1 | 106.2 | i | 0.78 | -7.7 | · | · | -1.0
CC(C)(C)NC(=O)CSc1nnc(NC(=O)c2ccccc2Cl)s1 | 124.6 | i | 1.06 | -10.2 | -75.0 | 46.0 | ·
Cc1cc(C(=O)CSc2nnnn2C)c(C)n1CCc1ccc(F)cc1 | 98.5 | i | 0.9 | 2.3 | -125.8 | 142.4 | -2.0
COc1ccccc1/C=C(/C(=O)OCC(=O)N(C)Cc1ccccc1)c1ccccc1 | 94.5 | i | 1.02 | -6.0 | · | · | 0.6
NC(=O)Cn1c(=O)n(C2CCCCC2)c(=O)c2c3c(sc21)CCCCC3 | 97.0 | i | 0.91 | 7.7 | -34.4 | 135.1 | -0.5
CCOc1ccc(C2C(C#N)=C(N)Oc3n[nH]c(C)c32)cc1OC(=O)C1CC1 (stereo unspecified) | 25.0 | i | 0.95 | 2.6 | 0.0 | 147.9 | -1.9
O=C(NCc1ccc(OC(F)(F)F)cc1)C1CC(c2c(Cl)cccc2Cl)=NO1 (stereo unspecified) | 102.3 | i | 0.79 | -5.3 | -33.3 | 122.8 | -0.2
CCOC(=O)C1=C(O)CCn2c1nc1ccccc12 | 96.5 | i | 0.95 | -4.7 | · | · | -0.8
CCOC(=O)C1CCN(C(=O)CCNC(=O)c2cc(OC)c(OC)c(OC)c2)CC1 | 106.4 | i | 1.08 | -6.4 | · | · | -1.2
COC(=O)c1ccc(/C=N/N2CCN(Cc3ccccc3)CC2)cc1 | 112.4 | i | 0.98 | 3.5 | -11.5 | 99.2 | -3.4
O=C(N/N=C/c1cc2c(cc1Cl)OCO2)c1ccccn1 | · | i | 0.93 | -8.8 | 26.7 | 113.3 | -4.0
CNC(=O)Nc1cc(NC(=O)NC)cc(C(F)(F)F)c1 | 115.3 | i | 1.24 | · | · | · | ·
COc1ccc(Cn2c(C)nnc2-c2cnn(C)c2N)cc1OC | 96.7 | i | 0.98 | 0.6 | · | · | ·
Cc1ccc2c(c1)NC(=O)CC(c1ccccc1)=N2 | 100.3 | i | 1 | -10.3 | -56.2 | 112.4 | -0.5
Cc1ccc(NC(=O)N2CCCC2C(=O)NCCC2=CCCCC2)cc1 (stereo unspecified) | 181.0 | i | 0.83 | -16.6 | · | · | -0.9
COc1cc(NS(=O)(=O)c2ccc(NC(=S)NC(=O)C(C)(C)C)cc2)nc(OC)n1 | 107.1 | i | 0.95 | -0.1 | -70.0 | 115.4 | -1.2
COc1ccccc1N1CCN(C/C(O)=C(\C#N)c2nc(-c3ccccc3)cs2)CC1 | 108.9 | i | 0.8 | -7.5 | -41.7 | 134.8 | -1.2
COCC(C)n1c(-c2ccc3c(c2)NC(=O)CO3)csc1=Nc1ccc(OC(F)F)cc1 (stereo unspecified) | 99.3 | i | 0.88 | -5.6 | 53.3 | 115.3 | -1.5
Cn1cnnc1SCCOc1ccc(Cl)cc1 | 104.0 | i | 0.96 | -12.8 | · | · | ·
NNC(=O)c1ccc(-c2cccc([N+](=O)[O-])c2)o1 | 109.7 | i | 0.84 | 0.0 | 9.1 | 173.1 | ·
COc1cccc(C(=O)N(Cc2cc3cc(C)ccc3[nH]c2=O)CC2CCCO2)c1 (stereo unspecified) | 101.4 | i | 0.78 | -1.1 | -16.1 | 92.9 | -0.9
NC(=NC(=O)c1ccccc1)N1N=CCC1c1ccccc1 (stereo unspecified) | 99.7 | i | 0.9 | -10.5 | · | · | ·

Three of the entries above in order of their number in GALR2 agonist, ascending.
Molecule	GALR2 agonist
O=C(N/N=C/c1cc2c(cc1Cl)OCO2)c1ccccn1	-4.0
COc1cccc(C(=O)N(Cc2cc3cc(C)ccc3[nH]c2=O)CC2CCCO2)c1 (stereo unspecified)	-0.9
COc1ccccc1/C=C(/C(=O)OCC(=O)N(C)Cc1ccccc1)c1ccccc1	0.6

Additional records follow:
SMILES | RGS16-Gao | HSV replic up | HSV replic up primary fold | PKD1 inh | Insulin prom inh | Insulin prom inh cell count | GALR2 agonist
CCCNC(=O)c1ccc(CN2CCOCC2)cc1 | 104.1 | i | 0.96 | 2.3 | -294.7 | 82.5 | ·
CC1=NOC(=O)/C1=C\c1ccc2c(c1)OCO2 | 89.6 | i | 0.94 | -1.9 | · | · | ·
COc1ccc(-c2csc(NC(=O)c3cc(-c4cccs4)nc4ccccc34)n2)c(OC)c1 | 106.9 | i | 1.05 | -4.0 | 29.0 | 63.7 | -2.3
O=C(CN1C(=O)c2ccccc2S1(=O)=O)c1ccc(O)c(O)c1 | 92.5 | i | 1.02 | · | · | · | ·
COc1cc(S(=O)(=O)Nc2cccc(C)c2)ccc1N=Cc1c(C)[nH]n(-c2ccccc2)c1=O | 89.9 | i | 0.67 | -5.3 | -30.0 | 93.0 | -0.9
CCOc1cc(C(=O)N/N=C\c2cn(CC)nc2C)cc(OCC)c1OCC | 105.3 | i | 0.73 | 2.4 | -57.1 | 52.1 | 0.0
Cc1ccc(C(=O)N/C(=C\c2cccs2)C(=O)NCCCn2ccnc2)cc1C | 107.6 | i | 0.87 | 4.8 | · | · | -2.5
Cn1c(=O)c2[nH]c(=O)cnc2n(C)c1=S | 118.6 | i | 1 | -2.9 | · | · | ·
CC(=O)C1=C(C)NC(SCC(=O)c2ccc(Cl)c(Cl)c2)=C(C#N)C1c1ccco1 (stereo unspecified) | · | i | 1.07 | 12.7 | · | · | -1.4
CC(=O)N1CCN(c2ccc(NC(=O)COc3ccc(Cl)cc3Cl)cc2)CC1 | 95.7 | i | 1.05 | -5.6 | · | · | -2.1
CC(=O)Nc1nc2c(F)cccc2s1 | · | i | 0.91 | -1.8 | · | · | -2.2
Cc1cc(NC(=O)c2ccccc2F)n(-c2nc3ccccc3[nH]2)n1 | 102.3 | i | 0.81 | -6.1 | · | · | -0.9
Cc1c(C)[n+](=O)c2c(n1[O-])CCC2 | 106.9 | i | 1.04 | -6.7 | · | · | -2.1
COc1ccccc1NC(=S)N(CCc1nc2cc(C)c(C)cc2[nH]1)Cc1cccnc1 | 93.5 | i | 0.82 | -3.1 | -35.7 | 168.7 | -1.3
Cc1ccc(S(=O)(=O)N2CCN(C(=O)N3CCOCC3)C2c2ccc(N(C)C)cc2)cc1 (stereo unspecified) | 103.9 | i | 0.88 | -1.3 | -91.1 | 92.4 | -2.3
Cc1ccc(CNc2cnn(C34CC5CC(CC(C5)C3)C4)c(=O)c2Cl)cc1 | 5.8* | i | 0.83 | -8.3 | -83.3 | 87.5 | -1.3
C#CCOCCOCCOCCNc1nc(N2CCN(C(=O)[C@H](CCCCN)n3cc([C@@H](N)CO)nn3)CC2)nc(N2CCN(C(=O)[C@H](Cc3cc4ccccc4[nH]3)n3cc([C@@H](N)Cc4ccc(O)cc4)nn3)CC2)n1 | 99.1 | · | · | 4.6 | · | · | ·
COc1ccccc1-c1noc(-c2cccnc2)n1 | 96.3 | i | 1.01 | -12.7 | -15.8 | 71.7 | -0.3
Brc1cnc2nc(SC/C=C/c3ccccc3)[nH]c2c1 | 98.0 | i | 0.98 | · | · | · | ·
Nc1cc2c(cc1C(=O)c1ccc(Cl)cc1)OCCO2 | 104.3 | i | 0.89 | -6.4 | 75.9* | 144.0* | -1.8

Four successive records already listed, quoted:
SMILES | RGS16-Gao | HSV replic up | HSV replic up primary fold | PKD1 inh | Insulin prom inh | Insulin prom inh cell count | GALR2 agonist
C#CCOCCOCCOCCNc1nc(N2CCN(C(=O)[C@H](CCCCN)n3cc([C@@H](N)CO)nn3)CC2)nc(N2CCN(C(=O)[C@H](Cc3cc4ccccc4[nH]3)n3cc([C@@H](N)Cc4ccc(O)cc4)nn3)CC2)n1 | 99.1 | · | · | 4.6 | · | · | ·
COc1ccccc1-c1noc(-c2cccnc2)n1 | 96.3 | i | 1.01 | -12.7 | -15.8 | 71.7 | -0.3
Brc1cnc2nc(SC/C=C/c3ccccc3)[nH]c2c1 | 98.0 | i | 0.98 | · | · | · | ·
Nc1cc2c(cc1C(=O)c1ccc(Cl)cc1)OCCO2 | 104.3 | i | 0.89 | -6.4 | 75.9* | 144.0* | -1.8

More compounds follow:
SMILES | RGS16-Gao | HSV replic up | HSV replic up primary fold | PKD1 inh | Insulin prom inh | Insulin prom inh cell count | GALR2 agonist
Cc1cccn2cc(CCNC(=O)Cc3cccs3)nc12 | 99.3 | i | 1.02 | · | · | · | ·
Cc1ccc(C(=O)NC(Cc2c[nH]c3ccccc23)C(=O)O)o1 (stereo unspecified) | 109.2 | i | 0.97 | -13.4 | 15.8 | 64.8 | -1.4
CCOC(=O)c1ccc(N2C(=O)CC(Sc3nnc(C)s3)C2=O)cc1 (stereo unspecified) | 107.8 | i | 0.93 | 1.7 | · | · | -1.5
COc1cc2c(cc1OC)CN(Cc1cc(=O)oc3cc(C)c(Cl)cc13)CC2 | 105.0 | i | 0.84 | -2.4 | -16.2 | 122.3 | -0.7
CC1(C(=O)N(CC(=O)NC2CCCC2)Cc2ccco2)CC(=O)N=C2C=CC=CN21 (stereo unspecified) | 93.8 | i | 0.89 | -1.8 | · | · | -1.7
O=c1c2cnn(-c3ccc(F)cc3)c2ncn1Cc1ccccn1 | 103.6 | i | 1.07 | -0.9 | 36.4 | 104.0 | -1.6
CCOc1ccccc1C(=O)NCCCn1ccnc1 | 112.1 | i | 0.97 | -7.8 | -54.5 | 100.9 | -2.0
O=C(O)CN(c1cccc(C(F)(F)F)c1)S(=O)(=O)c1ccccc1 | 96.5 | i | 0.9 | -5.9 | · | · | ·
CCN=C(NC#N)SCc1c(F)cccc1Cl | 68.2 | i | 0.87 | -1.1 | -166.7 | 65.4 | 0.0
Cc1cc(=O)c2cc3nc(-c4cccnc4)oc3c(Br)c2o1 | 96.0 | i | 0.98 | · | · | · | ·
Oc1c(C=NCc2ccncc2)sc2ccccc12 | 97.4 | i | 0.99 | -1.8 | -67.2 | 103.8 | -1.9
CNC(=S)NC(CC(=O)OC)c1ccc2c(c1)OCO2 (stereo unspecified) | 97.5 | i | 0.87 | 6.3 | · | · | ·
CC(=O)OCCCNc1cc(SCc2ccco2)c2nonc2c1[N+](=O)[O-] | 89.3 | i | 0.74 | -1.1 | 36.7 | 88.9 | -1.7
CCn1c(=N)n(CC(=O)c2ccc(OC)cc2)c2ccccc21 | 106.0 | i | 0.97 | -5.3 | 2.3 | 100.0 | -0.6
COc1cccc(C2C(=O)N(C3CCCCC3)CC(=O)N2Cc2ccc(F)cc2)c1 (stereo unspecified) | 99.5 | i | 0.88 | 0.8 | 16.7 | 119.5 | -2.0
COc1cc(/C=N/NC(=O)c2cccc([N+](=O)[O-])c2)cc(OC)c1O | 104.4 | i | 1 | -2.8 | 7.1 | 91.6 | ·
CCOC(=O)N1CCN(c2nnnn2-c2ccccc2)CC1 | 99.3 | i | 0.93 | 1.0 | 60.0 | 119.8 | -1.5
N#Cc1cnn(Cc2ccc(Cl)cc2)c1N | 103.0 | i | 1.01 | -8.5 | 53.3 | 114.2 | -4.2
CC(C)C(=O)N(c1ccc2oc(=O)sc2c1)S(=O)(=O)c1cccs1 | 99.0 | i | 0.96 | 1.0 | 15.0 | 192.7 | -1.1
Fc1cccc(Cl)c1CSc1nnc(COc2cccc3cccnc23)o1 | 106.3 | i | 0.99 | -2.4 | -16.2 | 74.1 | -2.6
